Screening results (PubChem)
Autofluor counter: counter-screen for toxin protease inhibitors: compound fluorescence. compound autofluorescence counterscreen, microsphere flow cytometry; active compounds read high. fluorescence intensity (test concentration not listed). actives 3.1% (n = 360,000). AID 624483;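 active means at least 3 SD above the mean of all compounds, about 16000 in these data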;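 further: 100 nL of 1 mM stock went into each well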
The depositor's hits bear a star. A portion of the library; rates above refer to the full screens.

SMILES	Autofluor counter
COc1ccc(CN2C(=O)c3ccccc3C2c2nnnn2C(C)C)cc1OC (stereo unspecified)	5821
O=[N+]([O-])c1cccc(/C=C2\CCc3cnn(C4CCS(=O)(=O)C4)c32)c1 (stereo unspecified)	3992
Nc1nc2c(ncn2[C@@H]2O[C@H](CNCc3ccc4ncccc4c3)[C@@H](O)[C@H]2O)c(=O)[nH]1	5967
Cc1ccc(C)c(C(O)c2ncc(-c3ccc(Cl)cc3)[nH]2)c1 (stereo unspecified)	4017
CC(O)(c1cccc(F)c1)c1nc(-c2ccc3c(c2)OCO3)cs1 (stereo unspecified)	3847
C/C(=N/NS(=O)(=O)c1ccc(Br)cc1)c1cccc(NC(=O)C2CC2)c1	3766
CC(=O)Nc1cc(-c2cccc(C(=O)NCCN(C)C)c2)cn2c(-c3ccc(F)c(Cl)c3)cnc12	3561
CC(C)C1C(=O)N(Cc2cn(Cc3ccco3)nn2)CCS(=O)(=O)N1Cc1ccc(-c2cccc(N(C)C)c2)cc1 (stereo unspecified)	3722
C[C@H](CO)N1C[C@H](C)[C@@H](CN(C)Cc2ccccc2F)Oc2ncc(Br)cc2C1=O	3463
CN1C(=O)[C@H]2[C@@H](c3ccc(C(F)(F)F)cc3)N[C@]3(CCCN(Cc4ccc(Cl)cc4)C3=O)[C@H]2C1=O	3711
COc1cccc(-c2oc3c(c2C(=O)OCCN2CCCCC2)C(O)CCC3)c1 (stereo unspecified)	4894
NC(Cc1ccc(C(F)(F)F)cc1)c1csc(Nc2cnccn2)n1 (stereo unspecified)	3803
CN(C)C1CCc2[nH]c3c(F)cc(F)cc3c2C1 (stereo unspecified)	3726
CC1(C(=O)Nc2cccc(C#N)c2)CCN1C(=O)Cc1ccc(-c2ccccc2)cc1 (stereo unspecified)	3909
CC1Oc2ccc(C#N)cc2N(Cc2ccccc2OC(F)(F)F)C1=O (stereo unspecified)	4037

An excerpt of these results, comma-delimited.
SMILES,Autofluor counter
CN(C)C1CCc2[nH]c3c(F)cc(F)cc3c2C1 (stereo unspecified),3726
C/C(=N/NS(=O)(=O)c1ccc(Br)cc1)c1cccc(NC(=O)C2CC2)c1,3766
NC(Cc1ccc(C(F)(F)F)cc1)c1csc(Nc2cnccn2)n1 (stereo unspecified),3803
CC1Oc2ccc(C#N)cc2N(Cc2ccccc2OC(F)(F)F)C1=O (stereo unspecified),4037

Next section:
SMILES	Autofluor counter
COc1ccc(-c2csc(C(C)(NC(C)=O)c3ccccc3)n2)cc1 (stereo unspecified)	3987
CC(=O)CSc1nc2nccnc2[nH]1	3461
N#Cc1ccc(-c2nc3ccc(Cl)cn3c2Cc2cccc(Cl)c2)cc1	8994
CC(O)CC(=O)OC[C@]12CC[C@H]3[C@@](C)(CC[C@H]4C(C)(C)CCC[C@]34C)[C@@H]1CC(C1=CC(=O)OC1O)O2 (stereo partly specified)	4959
COc1ccc(OC)c(S(=O)(=O)NC(=O)C2(C)CCN2C(=O)Cc2ccccc2Cl)c1 (stereo unspecified)	3943
CCOC(=O)c1ccn(S(=O)(=O)c2ccc(C)cc2)c1-c1ccccc1	5922
CCCCC[C@@H](C)N1C[C@H](COCc2ccccc2)Oc2cc(N3CCC[C@H]3C(N)=O)ccc2S1(=O)=O	4606
CCCCCCn1c(=O)n2n(c1=O)[C@@H]1CN(S(=O)(=O)c3ccc(C)cc3)C[C@]1(O)[C@@H](OC(=O)Nc1c(C)noc1C)C2	4360
COC(=O)[C@@]1(Sc2ccc(C)cc2)CC(=O)N(C(=O)CCc2ccccc2)[C@@H]1c1ccccc1	5076
O=C(NCCc1ccccc1C(F)(F)F)c1cc(COc2ccccc2)on1	4210
c1ccc(N=Nc2ccc(C3=NCCO3)cc2)cc1	3793
Cc1cc2c(Nc3ccccc3O)ncnc2s1	3411
CCc1nc2c(OCC(=O)C(C)(C)C)cccn2c1N(C=O)Cc1ccccc1	4060
OC(c1ccc(F)cc1)c1ncc(-c2ccc(Oc3ccccc3)cc2)[nH]1 (stereo unspecified)	3491
CN(C)C(=O)c1cccc(-c2ccc3nncn3c2)c1	2977
Cc1ccccc1-c1cc2nc(NCCN3CCNC3=O)n(C)c(=O)c2s1	3619
NS(=O)(=O)c1ccc(NC(=O)CN(C(=O)C(F)(F)F)C2CCCC2)cc1	3263
CCOCCC(=O)Nc1ccc2c(c1)c(=O)n(C)n2-c1ccc2ccccc2c1	4102
CN1c2ccccc2SC2C(c3ccccc3)=NOC21 (stereo unspecified)	6278
CC1(C(=O)NS(=O)(=O)C2CC2)CCN(C(=O)c2ccc3ccccc3n2)C1 (stereo unspecified)	3956
COC(=O)c1ccc2nc(-c3ccc(F)cc3)c(Cc3ccccc3)n2c1	6528
Cc1cccc(CN2CCN(C3CN(Cc4cn(Cc5cccc(C(F)(F)F)c5)nn4)S(=O)(=O)C3)CC2)c1 (stereo unspecified)	6269
CCC(=O)N1CCC(C)(C(=O)NCc2ccc(F)cc2)C1 (stereo unspecified)	3606
COc1cccc(CNC(=O)C2CCN(S(=O)(=O)c3ccc4c(c3)C(C)(C)C(=O)N4C)CC2)c1	5439
COc1ccccc1Cc1c(-c2ccc(Cl)cc2)nc2c(C)cc(Br)cn12	7149
CCCCNC(=O)C1(C)CCCCN1Cc1ccccc1-c1ccccc1 (stereo unspecified)	3822
CC(C)CCNC(=O)C1(C)CCN1Cc1ccc2ccccc2c1 (stereo unspecified)	3741
O=C1[C@H]2[C@@H]3CCN1CCC[C@@H]2C=C[C@@H]3c1ccc(Br)cc1	5835
COc1ccc(NC(=O)C[C@H]2C(=O)N(c3ccccc3)C[C@@H]2CSC)cc1	3589
O=c1c2ccccc2nnn1-c1ccccc1[N+](=O)[O-]	4435
C[C@@H]1CN([C@@H](C)CO)S(=O)(=O)c2ccc(/C=C/c3ccccc3)cc2O[C@@H]1CN(C)Cc1ccc(C(=O)O)cc1	4011
CC(C)(C)S(=O)N1Cc2cc(C(=O)NCCCN3CCOCC3)nc(-c3cccc(-c4cc5ccccc5o4)c3)c2[C@@H]1CCO (stereo partly specified)	5818
Cc1c(C(=O)NCc2ccccc2C(F)(F)F)sc(=O)n1Cc1ccc2ccccc2c1	4972
COc1ccc(C(NC(=O)C2CCN(CCCc3ccccc3)CC2)c2cccs2)cc1 (stereo unspecified)	3345
CC1(C(=O)N2CCCCC2)CCN1C(=O)Cc1ccc(-c2ccccc2)cc1 (stereo unspecified)	3659
COc1ccc(C(c2nnnn2-c2c(C)cccc2C)N2CCN(C/C=C/c3ccccc3)CC2)cc1 (stereo unspecified)	6377
O=C(NCc1cccnc1)c1cc(C2CCCN(S(=O)(=O)c3cccs3)C2)on1 (stereo unspecified)	3964
OC(c1ccc(F)cc1)c1nc(-c2ccccc2)cs1 (stereo unspecified)	3772
CCCNC(=O)C1(C)CCN(C(=O)/C=C/c2ccccc2)C1 (stereo unspecified)	3996
CCCCN1C(=O)C(CC(=O)NCc2ccco2)CC(C(=O)N(C)C)=C1C (stereo unspecified)	3220
CC(=O)Nc1cc(-c2cccc(N)c2)cn2c(-c3ccc(C(C)=O)cc3)cnc12	3812
CCCNC(=O)C1(C)CCCN(Cc2ccccc2C#N)C1 (stereo unspecified)	3737
Cc1ccnc2nc(C(=O)OCC(=O)N(C)C3CCCCC3)nn12	3061
Cc1ccc(Cc2c(-c3cccc(Cl)c3)nc3ccc(Br)cn23)cc1	5803
Cc1ccc(Cc2c(-c3ccc(Cl)cc3)nc3c(Cl)cc(C(F)(F)F)cn23)cc1	4988
O=C(NCc1ccc(Cl)c(Cl)c1)c1cc(C2CCCCN2C(=O)OCCF)on1 (stereo unspecified)	3461
O=S(=O)(NN=C(c1ccccc1)c1ccccc1)c1ccccc1	4054
Cc1ccc2nc(-c3ccc(Cl)cc3)c(Cc3ccccn3)n2c1	4946
CCCCCN1C(=O)c2cc(OC)ccc2[C@@]2(C(=O)OCC)Cc3cc(Cl)ccc3[C@@H]12	3981
NCc1csc(Nc2ccc(C(=O)c3ccccc3)cc2)n1	3478
C=CCCC(=O)N1C[C@H]2CCN(C)[C@H]2C[C@H]1c1ccc(Br)cc1	7594
CC#CCN(Cc1ccco1)C(=O)C1CCC(=O)N(CCc2cccc(F)c2)C1 (stereo unspecified)	3513
Cc1ccc(-c2cnc(C(O)c3cc(Cl)cc(Cl)c3)[nH]2)cc1 (stereo unspecified)	2955
O=C1NC[C@H](Cc2ccccc2)N(C[C@@H]2CCCN2C[C@H](Cc2ccc(O)cc2)N2C[C@H](Cc3ccc(O)cc3)N(CCc3ccccc3)C(=O)C2=O)C1=O	6001
CCc1nc2ccc(C(=O)NCCN3CCCC3)cn2c1N(C)Cc1ccc(OC)cc1	4284
C=CCn1c2ccccc2c2nnc(SCC(=O)OC)nc21	3489
C[C@H]1CN([C@@H](C)CO)C(=O)CCCn2nncc2CO[C@H]1CN(C)S(=O)(=O)c1cccc(F)c1	3523
CCCCCCn1cc(CN2CC(N3CCN(CCO)CC3)CS2(=O)=O)nn1 (stereo unspecified)	6295
COC(=O)C[C@@H]1C[C@H]2c3cc(NC(=O)Nc4ccccc4F)ccc3O[C@H]2[C@H](CO)O1	3875
CCCCCCCCN1C(=O)[C@H](CC(=O)NCCCCc2ccccc2)C[C@@]2(C(=O)OCC)CCCC=C12	3968

Some of the entries so far, with each value named:
COc1cccc(CNC(=O)C2CCN(S(=O)(=O)c3ccc4c(c3)C(C)(C)C(=O)N4C)CC2)c1
  Autofluor counter = 5439

CC1(C(=O)NS(=O)(=O)C2CC2)CCN(C(=O)c2ccc3ccccc3n2)C1 (stereo unspecified)
  Autofluor counter = 3956

CCc1nc2ccc(C(=O)NCCN3CCCC3)cn2c1N(C)Cc1ccc(OC)cc1
  Autofluor counter = 4284

COc1ccc(CN2C(=O)c3ccccc3C2c2nnnn2C(C)C)cc1OC (stereo unspecified)
  Autofluor counter = 5821

The list goes on:
SMILES	Autofluor counter
CCOc1ccc(Cl)cc1-c1cc(C(=O)NCCOC)[nH]n1	3568
CC(C)(C)c1ccc(CC(=O)N2CCC2(C)C(=O)Nc2cccc3c2CCCC3)cc1 (stereo unspecified)	3534
N#Cc1cccc(-c2csc(C(O)c3ccco3)n2)c1 (stereo unspecified)	3593
CCCCCCn1cc(CN2CC(N(C)CC)CS2(=O)=O)nn1 (stereo unspecified)	6036
CC(C)(C)S(=O)(=O)N1C[C@H]2CC/C=C\C/C=C\2[C@@H]1CCO	3322
C[C@H](CO)N1C[C@H](C)[C@@H](CN(C)C(=O)Cc2ccccc2)OCc2cnnn2CCCC1=O	2896
COCCNC(=O)C1CCCN(C(=O)c2ccc3c(c2)C(C)(C)CCC3(C)C)CC1 (stereo unspecified)	2903
CCOC(=O)C1=C[C@@H](C(C)(C)C)N(S(=O)(=O)c2ccc(C)cc2)[C@H]1c1cccc2ccccc12	6454
CC1NC(=O)COC1c1ccccc1 (stereo unspecified)	2818
CC(=O)NCCNc1nc(NC(C)C)nc2ccsc12	2862
CNc1ncnc2c1ncn2[C@H]1CN(C2CCCC2)C[C@@H](CO)O1	2881
Cc1ccc(CC2(C)C(=O)Nc3ccc(OC(F)(F)F)cc32)cc1 (stereo unspecified)	3691
O=C(Nc1cccc(Br)c1)Oc1cccc2cccnc12	5993
Cc1sc(NC(=O)C2CC(=O)N(Cc3ccco3)C2)nc1-c1ccccc1 (stereo unspecified)	2759
Fc1cccc(Cl)c1C1SCc2nc3ccccc3n21 (stereo unspecified)	4558
c1ccc(SC23CC4CC(CC(C4)C2)C3)nc1	3172
Cc1ccc(S(=O)(=O)N(C)c2ccc(C(=O)NC3CCCCC3)cc2)cc1	2819
O=C(CC[C@H]1O[C@@H](n2ccc(=O)[nH]c2=O)[C@H](O)[C@@H]1O)N[C@H](Cc1ccccc1)C(=O)NCc1ccc2c(c1)OCO2	5996
CCc1ccccc1NC(=O)CNC(=O)CCC(=O)c1cc(C)sc1C	3308
CCCC(=O)Nc1ccc(S(=O)(=O)N2CCc3ccccc32)cc1	4072
O=C(COC(=O)/C=C/c1cccc(Br)c1)Nc1ccc(Cl)cn1	3782
Fc1ccc(-c2nc3ccc(Br)cn3c2Cc2ccsc2)cc1	6185
CCOC(=O)C1(C)CCCN1C(=O)c1cccs1 (stereo unspecified)	2616
CC(C)(C)[C@H](NC(=O)c1ccc(N)c(Cl)c1)C(=O)N1CCC[C@H]1C(=O)N[C@H](C#N)CC(=O)O	2941
COc1cccc(C(O)c2nc(-c3cccc(NC(C)=O)c3)cs2)c1 (stereo unspecified)	3441
Cc1cccnc1C(NC(=O)C1CCN(CCCc2ccccc2)CC1)c1ccc(F)cc1 (stereo unspecified)	4335
COc1ccc(-c2cc3c(c4c2ccn4C)C2CCC3C2)cc1 (stereo unspecified)	3998
COc1cc(OC)cc(C2=Cc3ccccc3C(CC(C)=O)N2c2ccc(-c3cncnc3)cc2)c1 (stereo unspecified)	5616
COc1ccc(C(O)c2ncc(-c3cccc4ccccc34)[nH]2)cc1F (stereo unspecified)	2942
CC(C)OC(=O)N(C)C[C@H]1OCc2cnnn2CCCC(=O)N([C@H](C)CO)C[C@H]1C	2899

Entries above with a COOH group:
SMILES	Autofluor counter
C[C@@H]1CN([C@@H](C)CO)S(=O)(=O)c2ccc(/C=C/c3ccccc3)cc2O[C@@H]1CN(C)Cc1ccc(C(=O)O)cc1	4011
CC(C)(C)[C@H](NC(=O)c1ccc(N)c(Cl)c1)C(=O)N1CCC[C@H]1C(=O)N[C@H](C#N)CC(=O)O	2941

Further entries
SMILES	Autofluor counter
CC(=O)N1CCN(Cc2cc(=O)oc3cc(C)ccc23)CC1	5405
COC(=O)c1ccccc1OCc1cc(=O)oc2ccc(C)cc12	5455
COC(=O)[C@@]1(Cc2ccc(F)cc2)[C@H]2C(CC(=O)C(=O)N3CCCC3)C(=O)C[C@H]2CN1C(=O)c1ccccc1 (stereo partly specified)	6094
NC(Cc1cnc[nH]1)c1csc(Nc2ccc(C(F)(F)F)cn2)n1 (stereo unspecified)	4107
CCN(CC)C(=O)C1=C(C)N(Cc2ccccc2)C(=O)C(CC(=O)NC2CCCCC2)C1 (stereo unspecified)	3867
